NOMO-1 viab: NOMO-1 AML cell viability reduction, primary screen, STK33 inhibitor project, CellTiter-Glo luminescence; NOMO-1 AML viability, 72 h; 7.5% of 37,000 active; inhibition, % (test concentration not listed);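 active means most replicates above 80%; inconclusive means exactly half above 80%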;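 further: wells of about 30 µL received 25 nL stock; 0% = median of vehicle wells and 100% = reference inhibitor level; the first replicate is given; inactives centre near 10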
Numbers without * were called inactive; u = inconclusive.

SMILES | NOMO-1 viab
C[C@@H]1CN([C@@H](C)CO)C(=O)c2cccc(NS(=O)(=O)c3cccs3)c2O[C@@H]1CN(C)C(=O)Nc1cccc2ccccc12 | 29
Cc1ccc(S(=O)(=O)Nc2ccc3c(c2)C(=O)N([C@@H](C)CO)C[C@H](C)[C@H](CN(C)S(=O)(=O)c2ccc(F)cc2)O3)cc1 | 27
Cc1noc(C)c1NC(=O)Nc1ccc2c(c1)CC(=O)N([C@@H](C)CO)C[C@@H](C)[C@@H](CN(C)C(=O)NC(C)C)O2 | 8
Cc1ccc(S(=O)(=O)Nc2ccc3c(c2)CC(=O)N([C@@H](C)CO)C[C@H](C)[C@H](CN(C)C(=O)Nc2ccccc2)O3)cc1 | 13
C[C@H]1CN([C@@H](C)CO)C(=O)Cc2cc(NS(=O)(=O)c3ccccc3)ccc2O[C@H]1CN(C)Cc1ccc(-c2ccccc2)cc1 | 31
C[C@@H]1CN([C@H](C)CO)C(=O)c2cccc(NC(=O)NC3CCCCC3)c2O[C@@H]1CN(C)CC1CCCCC1 | -1
Nc1nc(SCC(=O)c2ccc(-c3ccccc3)cc2)n[nH]1 | 38
C[C@H](CO)N1C[C@H](C)[C@H](CN(C)C(=O)NC2CCCCC2)Oc2ccc(NC(=O)Nc3cccc4ccccc34)cc2CC1=O | 4
Cc1ccc(S(=O)(=O)N(C)C[C@@H]2Oc3ccc(NC(=O)Nc4ccccc4)cc3C(=O)N([C@@H](C)CO)C[C@@H]2C)cc1 | 42
CC(C)NC(=O)Nc1cccc2c1O[C@H](CN(C)Cc1ccc(Oc3ccccc3)cc1)[C@@H](C)CN([C@@H](C)CO)C2=O | 61
C[C@@H]1CN([C@H](C)CO)C(=O)c2cccc(NC(=O)NC3CCCCC3)c2O[C@@H]1CN(C)Cc1ccc(C(=O)Nc2ccccc2N)cc1 | 127*
COc1ccccc1-c1cc(=O)c2c(OC)cccc2o1 | 10
O=C(Nc1ccc(I)cc1C(=O)N1CCN(CCO)CC1)c1ccccc1Cl | 2
C[C@@H]1CN([C@H](C)CO)C(=O)Cc2cc(NC(=O)Cc3cn(C)c4ccccc34)ccc2O[C@@H]1CN(C)Cc1ccc(C(=O)O)cc1 | 0
C[C@@H]1CN([C@H](C)CO)C(=O)c2cccc(NC(=O)NC3CCCCC3)c2O[C@H]1CN(C)S(=O)(=O)c1ccccc1 | -2
C[C@@H]1CN([C@H](C)CO)C(=O)Cc2cc(N(C)C)ccc2O[C@H]1CN(C)C(=O)Nc1ccc2c(c1)OCO2 | 9
COc1ccc(NS(=O)(=O)c2ccc(NC(=O)c3ccc(Br)cc3)cc2)nn1 | -17
CCOC(=O)c1cnc2cc(C(F)(F)F)ccc2c1N(C)Cc1ccccc1 | 38
C[C@@H]1CN([C@@H](C)CO)C(=O)c2cc(NS(=O)(=O)c3cccs3)ccc2O[C@H]1CN(C)Cc1ccc(C(=O)Nc2ccccc2N)cc1 | 29
CC(=O)Nc1ccc(C(=O)CSc2nnc(C)s2)cc1 | 24
C[C@@H]1CN([C@@H](C)CO)C(=O)c2cc(NS(=O)(=O)c3ccccc3)ccc2O[C@H]1CN(C)S(=O)(=O)c1ccc(F)cc1 | -32
COc1ccc2c(c1)OC/C(=C\c1ccc(OC)c(O)c1)C2=O | 107*
Cc1ccc(S(=O)(=O)N(C)C[C@@H]2Oc3ccc(NC(=O)C4CCCCC4)cc3C(=O)N([C@@H](C)CO)C[C@H]2C)cc1 | -6
Cc1ccc(S(=O)(=O)N(C)C[C@H]2OCCCC[C@@H](C)Oc3ccc(NS(=O)(=O)c4ccc(F)cc4)cc3C(=O)N([C@H](C)CO)C[C@@H]2C)cc1 | u
Cc1ccc(S(=O)(=O)Nc2cccc3c2O[C@@H](CN(C)S(=O)(=O)c2ccc(Cl)cc2)[C@@H](C)CN([C@@H](C)CO)C3=O)cc1 | 15
COc1ccc(NC(=O)Nc2c(SC)nsc2SC)cc1 | 14
Cc1ccc(S(=O)(=O)N2C(=O)CCC2C(=O)Nc2ccc(Cl)c(C(F)(F)F)c2)cc1 (stereo unspecified) | -6
C[C@H]1CN([C@@H](C)CO)C(=O)c2cccc(NS(=O)(=O)c3cn(C)cn3)c2O[C@H]1CN(C)C(=O)Nc1ccc(C(F)(F)F)cc1 | 39
COC(=O)C(CC(C)C)NS(=O)(=O)c1ccc(-c2nnc(SC)n2C)s1 (stereo unspecified) | 119*
C[C@H](CO)N1C[C@H](C)[C@H](CN(C)Cc2ccccc2)Oc2ccc(NC(=O)C3CC3)cc2CC1=O | 12
CC(C)NC(=O)Nc1cccc2c1O[C@H](CN(C)Cc1ccc(Oc3ccccc3)cc1)[C@@H](C)CN([C@H](C)CO)C2=O | 89*
CCc1nc(SCC(=O)Nc2ccc(OC)cc2)c2c3c(sc2n1)COC(C)(C)C3 | 36
C[C@@H]1CCCCO[C@@H](CN(C)S(=O)(=O)c2cccs2)[C@@H](C)CN([C@H](C)CO)C(=O)c2cc(NC(=O)Nc3ccc(C(F)(F)F)cc3)ccc2O1 | 40
O=C(Cc1ccccc1)c1cccs1 | 16
C[C@H]1CN([C@@H](C)CO)C(=O)c2cc(NC(=O)Nc3ccc4c(c3)OCO4)ccc2O[C@@H]1CN(C)C(=O)Nc1ccc(F)cc1 | -5
Nc1nonc1-c1nc2ccccc2n1CC(=O)Nc1cccc(Cl)c1Cl | 119*
COc1cccc(C(=O)c2sc3nsc(SCc4ccccc4)c3c2N)c1 | 18
COc1ccc(CN(C)C[C@@H]2Oc3ccc(NC(=O)NC(C)C)cc3C(=O)N([C@@H](C)CO)C[C@H]2C)cc1 | 12
CCCCCCCCN1C(=O)C(C(C)=O)=C(C)C1(C)O (stereo unspecified) | 98*
O=C(Nc1ccc(S(=O)(=O)Nc2ncccn2)cc1)c1cccc(I)c1 | 33
COc1cc(NC(=O)COc2cc(C)ccc2C)c(C(=O)O)cc1OC | 37
C[C@H]1CN([C@@H](C)CO)C(=O)Cc2cc(NC(=O)Cn3cnnn3)ccc2O[C@H]1CN(C)S(=O)(=O)c1ccc(F)cc1 | -1
Cc1noc(C)c1S(=O)(=O)Nc1ccc2c(c1)C(=O)N([C@H](C)CO)C[C@H](C)[C@H](CN(C)S(=O)(=O)c1ccc(F)cc1)OCCCC[C@@H](C)O2 | 33
C[C@H](CO)N1C[C@H](C)[C@H](CN(C)C(=O)Nc2ccc3c(c2)OCO3)Oc2ccc(NS(=O)(=O)c3ccccc3)cc2C1=O | 1
COc1ccc(S(=O)(=O)Nc2cccc3c2O[C@H](CN(C)S(=O)(=O)c2ccc(OC)cc2)[C@H](C)CN([C@@H](C)CO)C3=O)cc1 | 44
COC(=O)c1ccc(C(=O)OC)c(NS(=O)(=O)c2ccc3c(c2)OCCO3)c1 | 48
Cc1ccc(C(=O)O)cc1NC(=O)CCN1C(=O)c2ccccc2C1=O | 0
C/C=C(/C)C(=O)OC1Cc2c(ccc3ccc(=O)oc23)OC1(C)C (stereo unspecified) | 10
COc1ccc(NC(=O)CN(c2cc(Cl)cc(Cl)c2)S(C)(=O)=O)cc1Cl | 17
CC(C)NC(=O)N(C)C[C@H]1Oc2c(NC(=O)C3CCCCC3)cccc2C(=O)N([C@@H](C)CO)C[C@H]1C | -7
N#Cc1c(NC(=O)CCCOc2ccc(Cl)cc2Cl)sc2c1CCCC2 | 33
C[C@H]1CN([C@@H](C)CO)C(=O)c2cc(NC(=O)CCN3CCOCC3)ccc2O[C@@H]1CN(C)Cc1ccc2c(c1)OCO2 | -17
C[C@@H]1CN([C@H](C)CO)C(=O)Cc2cc(NS(=O)(=O)c3ccc(Cl)cc3)ccc2O[C@H]1CN(C)S(C)(=O)=O | 16
Cc1cc(C(=O)CSc2nnnn2-c2ccccc2)c(C)n1-c1cc(F)ccc1F | 13
C[C@@H]1CN([C@H](C)CO)C(=O)c2cccc(NC(=O)c3ccncc3)c2O[C@@H]1CN(C)C(=O)Nc1ccc(C(F)(F)F)cc1 | 26
CSc1ccccc1NC(=O)C(C)NS(=O)(=O)c1ccc(C)cc1 (stereo unspecified) | 24
C[C@H]1CN([C@@H](C)CO)C(=O)c2cc(NS(=O)(=O)c3ccccc3)ccc2O[C@@H]1CN(C)S(=O)(=O)c1cccs1 | 1
CNC(=O)CN(c1ccc(C23CC4CC(CC(C4)C2)C3)cc1)S(C)(=O)=O | 31
O=C(O)c1cccc(CSc2nnc(-c3ccncc3)o2)c1 | 29
CS(=O)(=O)N(CC(=O)Nc1cc(Cl)ccc1Cl)c1ccc2c(c1)OCCO2 | 14

Reprinted at random: three entries already listed
SMILES | NOMO-1 viab
CNC(=O)CN(c1ccc(C23CC4CC(CC(C4)C2)C3)cc1)S(C)(=O)=O | 31
O=C(O)c1cccc(CSc2nnc(-c3ccncc3)o2)c1 | 29
Cc1ccc(C(=O)O)cc1NC(=O)CCN1C(=O)c2ccccc2C1=O | 0

More records:
SMILES | NOMO-1 viab
C[C@@H]1CN([C@H](C)CO)C(=O)Cc2cc(NS(=O)(=O)c3cccs3)ccc2O[C@@H]1CN(C)C | 7
Cc1cc2c(=O)n(C)c(SCC(=O)c3cc4ccccc4o3)nc2s1 | -4
COc1cc(C2OC(c3cc(OC)c(OC)c(OC)c3)C(C)C2C)cc(OC)c1OC (stereo unspecified) | 8
C[C@@H]1CN([C@@H](C)CO)C(=O)c2cc(NS(=O)(=O)c3ccc(F)cc3)ccc2O[C@H]1CN(C)Cc1ccc(-c2ccccc2)cc1 | 107*
CC1(C)CC[C@]2(C(=O)O[C@@H]3O[C@H](CO)[C@@H](O)[C@H](O)[C@H]3O)CC[C@]3(C)C(=CCC4[C@@]5(C)CC[C@H](O[C@@H]6O[C@H](C(=O)O)[C@@H](O)[C@H](O)[C@H]6O)[C@@](C)(CO)C5CC[C@]43C)C2C1 (stereo partly specified) | 67
Cc1ccc(S(=O)(=O)N(C)C[C@H]2Oc3c(NS(=O)(=O)c4ccc(Cl)cc4)cccc3C(=O)N([C@H](C)CO)C[C@H]2C)cc1 | 22
COc1ccc(S(=O)(=O)N(C)CC(=O)Nc2ccc3c(c2)OCCO3)cc1Cl | 1
CNC[C@H]1Oc2ccc(NS(=O)(=O)c3ccc(OC)cc3)cc2C(=O)N([C@@H](C)CO)C[C@@H]1C | 7
COc1cccc(OCCCCSc2ncccn2)c1 | -11
Cc1ccc(-n2sc3ccccc3c2=O)cc1 | 141*
C[C@@H]1CCCCO[C@H](CN(C)C(=O)CCC(F)(F)F)[C@@H](C)CN([C@H](C)CO)C(=O)c2cc(NS(=O)(=O)c3ccc(F)cc3)ccc2O1 | 1
C[C@H]1CN([C@@H](C)CO)C(=O)Cc2cc(NS(=O)(=O)c3ccc(F)cc3)ccc2O[C@@H]1CN(C)Cc1ccc(-c2ccccc2)cc1 | 122*
C[C@@H]1CN([C@H](C)CO)C(=O)c2cccc(NS(=O)(=O)c3ccc(F)cc3)c2O[C@@H]1CN(C)Cc1ccc(C(=O)O)cc1 | -2
CC(C)NC(=O)N(C)C[C@H]1Oc2ccc(N(C)C)cc2CC(=O)N([C@@H](C)CO)C[C@H]1C | -7
C[C@H]1CN([C@@H](C)CO)C(=O)c2cc(NC(=O)Cc3ccccc3)ccc2O[C@@H]1CN(C)S(=O)(=O)c1cccs1 | 17
CC(C)NC(=O)N(C)C[C@@H]1Oc2c(NS(C)(=O)=O)cccc2C(=O)N([C@H](C)CO)C[C@@H]1C | 3
CC(=O)c1cccc(NC(=O)CSc2nc(-c3ccc(F)cc3)cs2)c1 | 12
COc1ccc(NC(=O)CNC(=O)c2ccccc2F)cc1Cl | 18
CCc1nn(C)c2c(=O)c(=O)c2n(C)[nH]1 | 18
Cc1c(Cl)ccc2c(C(=O)NCCCn3nccc3C)cc(-c3ccccn3)nc12 | 47

Grouped by structure, the compounds so far with an NH in an aromatic ring
SMILES | NOMO-1 viab
Nc1nc(SCC(=O)c2ccc(-c3ccccc3)cc2)n[nH]1 | 38
CCc1nn(C)c2c(=O)c(=O)c2n(C)[nH]1 | 18

The list continues:
SMILES | NOMO-1 viab
COc1ccc(NC(=O)Nc2ccc3c(c2)C(=O)N([C@@H](C)CO)C[C@H](C)[C@H](CN(C)C(=O)Nc2ccc(OC)cc2)O3)cc1 | 9
C[C@H]1CN([C@@H](C)CO)C(=O)c2cccc(N(C)C)c2O[C@@H]1CN(C)Cc1ccc(Oc2ccccc2)cc1 | 22
C[C@H]1CN([C@@H](C)CO)C(=O)c2cc(NC(=O)c3ccncc3)ccc2O[C@H]1CN(C)S(=O)(=O)c1cccs1 | 6
C[C@H](CO)N1C[C@H](C)[C@H](CN(C)S(C)(=O)=O)Oc2ccc(NS(=O)(=O)c3ccc(Cl)cc3)cc2C1=O | 10
CC1OC(OC2C(OC(=O)C34CCC(C)(C)CC3C3=CCC5C6(C)CCC(OC7OC(CO)C(OC8OC(C(=O)O)C(OC9OCC(O)C(O)C9O)C(O)C8O)C(O)C7O)C(C)(CO)C6CCC5(C)C3(C)CC4)OC(COC3OCC(O)C(O)C3O)C(O)C2O)C(O)C(O)C1O (stereo unspecified) | 6
C[C@@H]1CN([C@@H](C)CO)C(=O)c2cc(NC(=O)Nc3ccccc3)ccc2O[C@H]1CN(C)C(=O)NC1CCCCC1 | 15
C[C@@H]1CN([C@H](C)CO)C(=O)c2cc(NC(=O)Nc3cccc4ccccc34)ccc2O[C@@H]1CN(C)C(=O)Nc1ccc(F)cc1 | 27
CS(=O)(=O)N(CC(=O)Nc1cccc([N+](=O)[O-])c1)c1ccc(Br)cc1 | 19

Compound activity from PubChem BioAssay.

These rows are one share of the data. The share of hits here may be higher or lower than overall.
